Mtb hypoxia rep: reduces hypoxia-regulated biosensor signal in M. tuberculosis | fluorescence inhibition, % (test concentration not listed) | AID 1159583 | M. tuberculosis hypoxia-regulated fluorescent reporter, fluorescence | 0.1% of 300,000 active;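 active means 35 to 45% if threefold the growth effect, above 45% if 1.5-fold the growth effect; inactive means the rest, general growth blockers included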;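 further: wells of about 50 µL received 100 nL stock; 0% = vehicle wells and 100% = reference inhibitor wells; whole bacteria with a GFP reporter of the hypoxia response; strong numbers were not always called active; many hits fall short of the cut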
PrP UTR inh: suppresses PrP 5' UTR mRNA reporter expression; AID 488862; 0.35% of 340,000 active; cell-based PrP 5' UTR mRNA reporter, plate reader; inhibition, % (test concentration not listed);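 active means every replicate at 50% or more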;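 further: 0 = median of the neutral control wells; tested in H4 reporter cells; numbers are from one replicate; inactives centre near -14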
RN4220 kill: kills Staphylococcus aureus RN4220. S. aureus RN4220 growth, OD600, 16 h. 0.33% of 330,000 active. inhibition, % (concentration not given with the values);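 active means z-score of -3 or lower and OD600 up to 0.18 on both plates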;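 further: plate controls were untreated cells for no effect and reference antibiotic for full effect; stock transfer was 100 nL into about 80 µL; one replicate is shown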
ugtP null kill: kills S. aureus RN4220 lacking UgtP. S. aureus RN4220 ugtP deletion, OD600 growth, 16 h; some inactives read as strong as hits. growth inhibition, % (no concentration beside the values). 0.54% of 330,000 active. AID 1259309;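 active means z-score under -3 and OD600 up to 0.15 on both plates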;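 further: plate controls were untreated wells for no effect and antibiotic for full effect; wells of about 80 µL received 100 nL stock; the first replicate is given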
Bead autofluor: compound fluorescence in toxin protease inhibitor counterscreen | compound autofluorescence counterscreen, microsphere flow cytometry; hits give high values | fluorescence intensity (test concentration not listed) | 3.1% of 360,000 active | AID 624483;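 active means at least 3 SD above the mean of all compounds, about 16000 in these data; inconclusive means too few beads counted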;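 further: 100 nL of 1 mM stock went into each well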
BJeLR viability: BJeLR cell viability loss; 0.17% of 300,000 active; inhibition, % (no concentration beside the values); BJeLR (HRASV12) viability, CellTiter-Glo ATP luminescence, 48 h; reference of the scale not given here; AID 1554;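 active means replicate mean above 50%; inconclusive means above 50% but judged a plate artefact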;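 further: 50 nL library stock added to about 25 µL; numbers are from one replicate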
Mtb hypoxia rep growth: recorded beside Mtb hypoxia rep, whose call it bears; growth inhibition, %; measured here: M. tuberculosis growth (absorbance);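 0% = vehicle and 100% = reference antibiotic; read after six days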
An asterisk follows results filed as active; ? = inconclusive; / = no result given.

SMILES	Mtb hypoxia rep	Mtb hypoxia rep growth	PrP UTR inh	RN4220 kill	ugtP null kill	Bead autofluor	BJeLR viability
CC1CCCCC12NC(=O)N(CC(=O)OCc1ccc(Br)cc1)C2=O (stereo unspecified)	11	2	/	7.0	3	4945	/
COCCN(C(=O)COC(=O)COc1ccc(Cl)c(C)c1)c1c(N)n(Cc2ccccc2)c(=O)[nH]c1=O	-3	1	-1	-1.5	-4	5674	-24
NC(=NOC(=O)Cc1ccc(-c2ccccc2)cc1)c1ccncc1	1	7	/	4.7	-5	/	/
COc1ccc(-c2cc(Nc3ccccc3NC(=O)C(F)(F)F)n(CCC#N)n2)cc1	2	7	-27	3.2	2	7384	14
Cc1cc(C)nc(N2CCC(C(=O)NNC(=O)Cc3ccccc3)CC2)n1	-11	-4	-11	-1.2	-3	4678	-1
COc1ccc(CCNC(=O)c2ccc(N3CCCC3=O)cc2)cc1OC	-1	5	-30	4.3	5	21331*	16
O=C(c1ccccc1)C1CC=CCC1C(=O)c1ccccc1 (stereo unspecified)	9	3	-9	2.6	1	2873	/
CCCCNc1c(-c2ccc(SC(C)CC)c(OC)c2)nc2ccc(C)cn12 (stereo unspecified)	6	24	-20	19	25	4277	-3
CN(C)C=Nc1cc(=O)n(C)c(=O)n1Cc1ccccc1	14	9	/	3.7	1	/	/
O=C(CCl)NC(=O)NC12CC3CC(CC(C3)C1)C2	25	22	-3	12	-4	2345	2
O=C(NN=Cc1cccnc1)c1ccc(NC(=O)C(c2ccccc2)c2ccccc2)cc1	-3	3	/	0.3	5	/	/
COC(=O)C(CC(=O)c1ccccc1)CC(=O)c1ccccc1	11	4	-31	4.2	9	3495	-3
Cc1c(C)c(C)c(CN2CCSCC2)c(C)c1C	9	13	-12	5.0	16	3880	1
COc1ccccc1NC(=O)CCc1nc2ccccc2s1	10	-2	-25	-0.9	-1	3012	2
CC1(C)CC(=O)C(C=NCCCn2ccnc2)=C(O)C1	0	4	-7	6.2	5	21981*	-1
CCn1c(=O)c2cc(C(=O)N3CCCC3)sc2c2ccccc21	8	3	/	6.6	6	/	12
CCCCCSc1cc(OC)c(CCNC)cc1OC	/	/	-11	-2.6	2	4329	9
C/C(=N/NC(=O)C1COc2ccccc2O1)c1ccco1 (stereo unspecified)	/	/	-5	/	/	2000	-14
Cc1ccc(C)c2[nH]c(=O)c(CN(CC3CCCO3)C(=O)NC3CCCCC3)cc12 (stereo unspecified)	-9	-9	-31	-0.3	-9	19956*	-1
Cc1ccc(N=C2c3ccccc3C(=O)C2[N+](=O)[O-])cc1C (stereo unspecified)	14	-2	-16	4.0	-3	4456	3
O=C(N/N=C/c1sc(N2CCOCC2)nc1-c1ccccc1)c1cccc(S(=O)(=O)N2CCOCC2)c1	/	/	-46	/	/	6462	21
NC(=S)n1[nH]c(-c2ccc([N+](=O)[O-])cc2)c(N=Nc2ccc(O)cc2)c1=O	8	1	-1	6.6	-10	6307	-9
O=C(COC(=O)c1cncc(Br)c1)NC1CC1	1	-4	-14	1.2	1	15211	4
CC1CCc2c(sc(/N=C/N(C)C)c2C#N)C1 (stereo unspecified)	/	/	-40	/	/	3502	3
O=C(Nc1ccc(C(=O)NCc2ccccc2)cc1)C1=CSCCO1	-7	-3	-21	2.5	2	5941	-4

A portion taken from the entries so far, as a working copy:
SMILES	Mtb hypoxia rep	Mtb hypoxia rep growth	PrP UTR inh	RN4220 kill	ugtP null kill	Bead autofluor	BJeLR viability
CC1CCCCC12NC(=O)N(CC(=O)OCc1ccc(Br)cc1)C2=O (stereo unspecified)	11	2	/	7.0	3	4945	/
COCCN(C(=O)COC(=O)COc1ccc(Cl)c(C)c1)c1c(N)n(Cc2ccccc2)c(=O)[nH]c1=O	-3	1	-1	-1.5	-4	5674	-24
NC(=NOC(=O)Cc1ccc(-c2ccccc2)cc1)c1ccncc1	1	7	/	4.7	-5	/	/
COc1ccc(-c2cc(Nc3ccccc3NC(=O)C(F)(F)F)n(CCC#N)n2)cc1	2	7	-27	3.2	2	7384	14
Cc1cc(C)nc(N2CCC(C(=O)NNC(=O)Cc3ccccc3)CC2)n1	-11	-4	-11	-1.2	-3	4678	-1
COc1ccc(CCNC(=O)c2ccc(N3CCCC3=O)cc2)cc1OC	-1	5	-30	4.3	5	21331*	16
O=C(c1ccccc1)C1CC=CCC1C(=O)c1ccccc1 (stereo unspecified)	9	3	-9	2.6	1	2873	/
CCCCNc1c(-c2ccc(SC(C)CC)c(OC)c2)nc2ccc(C)cn12 (stereo unspecified)	6	24	-20	19	25	4277	-3
CN(C)C=Nc1cc(=O)n(C)c(=O)n1Cc1ccccc1	14	9	/	3.7	1	/	/
O=C(CCl)NC(=O)NC12CC3CC(CC(C3)C1)C2	25	22	-3	12	-4	2345	2
O=C(NN=Cc1cccnc1)c1ccc(NC(=O)C(c2ccccc2)c2ccccc2)cc1	-3	3	/	0.3	5	/	/
COC(=O)C(CC(=O)c1ccccc1)CC(=O)c1ccccc1	11	4	-31	4.2	9	3495	-3
Cc1c(C)c(C)c(CN2CCSCC2)c(C)c1C	9	13	-12	5.0	16	3880	1

Sorted by molar mass (highest first): some entries from above
SMILES	Mtb hypoxia rep	Mtb hypoxia rep growth	PrP UTR inh	RN4220 kill	ugtP null kill	Bead autofluor	BJeLR viability
CC1CCCCC12NC(=O)N(CC(=O)OCc1ccc(Br)cc1)C2=O (stereo unspecified)	11	2	/	7.0	3	4945	/
CCCCNc1c(-c2ccc(SC(C)CC)c(OC)c2)nc2ccc(C)cn12 (stereo unspecified)	6	24	-20	19	25	4277	-3
O=C(c1ccccc1)C1CC=CCC1C(=O)c1ccccc1 (stereo unspecified)	9	3	-9	2.6	1	2873	/

Later entries
SMILES	Mtb hypoxia rep	Mtb hypoxia rep growth	PrP UTR inh	RN4220 kill	ugtP null kill	Bead autofluor	BJeLR viability
O=C(Nn1cnc2ccccc2c1=O)c1c(F)cccc1F	5	-8	-20	5.9	6	2926	-9
O=C(NN=Cc1ccc(OCc2ccccc2)cc1)c1ccco1	6	4	/	1.8	5	/	/
Cc1scc(C(=O)NNC(=S)NCC2CCCO2)c1C (stereo unspecified)	/	/	-15	-1.3	5	3952	-10
COCCCNC(=S)NNC(=S)Nc1ccc(OC)cc1	-4	-8	-24	0.5	-8	4941	10
CCCCOC(=O)c1ccc(NC(=O)Nc2ccc(OC)c(OC)c2)cc1	-5	8	-3	-5.2	-13	3282	-7
Cc1ccc(-c2ccc(SCC(=O)c3ccccc3)nn2)cc1	14	8	-40	5.6	7	6183	-2
CC1CN(CCC(=O)Nc2ccc3c(c2)CCC3)CC(C)O1 (stereo unspecified)	5	8	-10	4.3	5	10396	-5
COc1cc(C(=O)Nc2ccc(C(F)(F)F)cc2)ccc1OCC(=O)N1CCOCC1	5	13	-24	2.2	2	/	/
CC1(C)C2([N+](=O)[O-])CN3CC1([N+](=O)[O-])CN(C2)C3c1ccccc1 (stereo unspecified)	7	5	-15	2.9	-2	22107*	17
Cc1ccccc1NC(=O)CN1C(=O)NC(C)(c2ccc3c(c2)OCO3)C1=O (stereo unspecified)	26	6	-14	-8.8	0	2521	-12
COc1ccc(-n2ccnc2SCC(=O)NCc2ccc(F)cc2)c(OC)c1	1	-6	-11	6.6	5	3311	5
COc1ccc(CCNC(=O)c2csc3c2CCCC3)cc1	1	17	-29	11	3	4364	9
CCC(C(=O)NC1CCCC1)N(C(=O)c1snc(C(N)=O)c1N)c1ccc2c(c1)OCCO2 (stereo unspecified)	-3	4	-12	3.7	2	9485	-5
CCCCn1c(=O)c(CCC(=O)OCC(=O)NC(=O)NCCOC)nc2ccccc21	11	5	-22	2.1	4	4001	2
O=C(N/C(=C\c1ccc(Br)cc1)C(=O)N1CCOCC1)c1ccc(Br)o1	/	/	6	/	/	3635	-1
COc1ccc2cc(Br)ccc2c1CC(=O)NCCCN1CCOCC1	14	8	-26	1.5	3	5290	8
Cc1cccc(C)c1NC(=O)CNC(=O)COC(=O)c1ccc(Cl)s1	1	4	-5	3.3	5	4799	/
COc1ccc(OC)c(NC(=O)C2CCN(S(=O)(=O)c3ccc4c(c3)CC(C)N4C(C)=O)CC2)c1 (stereo unspecified)	9	6	-3	1.9	5	6271	-6
Cc1ccc(C)c(NS(=O)(=O)c2cc(C(=O)NCc3ccccn3)ccc2Cl)c1	4	3	-6	6.9	12	7629	-7
Cc1cc(C(=O)NCCc2ccccc2)ccc1[N+](=O)[O-]	4	4	-48	-0.6	-2	6455	-12
Cc1ccccc1N(C(=O)c1csnn1)C(C(=O)NC(C)(C)C)c1cccs1 (stereo unspecified)	10	0	-8	4.0	1	3734	8
COc1ccc(-c2nc(SC)n(S(=O)(=O)c3ccccc3)n2)cc1	4	8	-31	9.1	20	4384	2
O=C(N/N=C/c1ccc(O)cc1)c1nc(-c2ccccc2)n(-c2ccccc2)n1	/	/	-10	/	/	2062	6
O=C(NCc1ccc(/C=N\NC(=O)C(=O)Nc2ccccc2Br)o1)C(=O)Nc1ccccc1	/	/	-19	/	/	4160	-2
COc1cc(C=Nn2nnnc2N)cc(OC)c1OC	2	-7	/	2.1	4	/	/
The results go on.
SMILES	Mtb hypoxia rep	Mtb hypoxia rep growth	PrP UTR inh	RN4220 kill	ugtP null kill	Bead autofluor	BJeLR viability
CC(=O)ONC(=Nc1ccccc1)c1nonc1N	6	13	-2	0.7	3	/	-9
CCCN(CCC)C(=O)Cn1c2ccccc2c2nc(=O)cc(C)n21	-1	4	-10	-9.0	2	4419	-1
O=C1CC(c2cccs2)c2cc3c(cc2N1)OCCO3 (stereo unspecified)	9	12	-10	0.2	1	7956	-5
CCN(CC)C(=O)c1cccc2nc3ccccc3nc12	0	1	-26	2.7	3	4568	-2
Cc1c(=O)n(OCc2cccc(F)c2)c2ccccc2[n+]1[O-]	1	8	-9	3.4	-3	8903	-22
COc1ccc(CC(=O)Nc2cc(S(=O)(=O)N3CCCCC3)ccc2C)cc1OC	6	5	4	3.9	10	4508	10
CC(=O)N1CCN(CC(=O)Nc2ccc(C)c(S(=O)(=O)N(C)C)c2)CC1	11	8	-15	12	7	4291	-10
CCN1CC=C2C(C#N)=C(N)C(C#N)(C#N)[C@H](c3cccc(OC)c3OC)[C@H]2C1	4	9	-11	5.7	4	11811	/
COc1ccc(CC(=O)N/N=C(\C)c2ccc(Br)s2)cc1	/	/	-16	/	/	3667	5
COc1ccc(C(=O)NCCSCc2ccccc2Cl)cc1OC	2	11	6	-2.3	6	3550	-8
CCCC(C=Cc1ccc(OC(C)=O)cc1)=C1c2ccccc2C(=O)N1c1ccccc1	3	10	/	-6.6	11	/	/
CN(C)C(=O)Oc1ccc(-c2cn3cc(C(F)(F)F)ccc3n2)cc1	2	-3	-24	-1.3	-5	8473	-18
O=C(CC1C(=O)NCCN1Cc1ccccc1)NCCCOc1cccnc1 (stereo unspecified)	/	/	-6	/	/	?	15
CC(=O)Nc1ccc(NC(=O)C(C)OC(=O)c2ccccc2NS(=O)(=O)c2cccs2)cc1 (stereo unspecified)	-9	4	8	-2.2	-1	4605	6
COCC(=O)N(C)C1(c2nnnn2CCOC(=O)Nc2ccc(Cl)cc2)CCCCC1	16	5	-17	2.3	11	2049	8
COc1ccc(CC(=O)OCC(=O)Nc2ccc3c(c2)OCO3)cc1	-5	-3	-15	5.9	4	3957	34
CN(C)c1oc(COc2ccc(F)cc2)nc1C#N	7	4	-3	5.0	4	2525	0
COc1ccccc1CCNC(=O)CCSc1nc(-c2ccco2)cc(C(F)(F)F)n1	16	9	-8	-0.6	-4	2914	0
CCOCCCNC(=O)c1ccc2c(c1)N(Cc1ccccc1)C(=O)CS2=O (stereo unspecified)	/	/	-32	1.6	0	5725	-13
Oc1ccc(/C=N/n2c(COc3ccccc3)n[nH]c2=S)c(O)c1	/	/	-23	/	/	3655	1
CCOC(=O)N1CCN(c2cc(=O)n(-c3ccc(Br)cc3)c(=O)[nH]2)CC1	2	9	-18	-3.8	2	5975	-10
Cc1ccc(OCC(=O)Nc2ccccc2N2CCOCC2)c(C)c1	8	9	3	9.5	-7	3075	-10
O=C(NCc1ccccc1Cl)C1CCN(c2cnccn2)CC1	8	12	-6	13	10	4092	-7
COc1ccc(C=NOCC(=O)OCC(=O)N(C)c2ccccc2)cc1	2	8	/	4.2	8	/	/
CCCCn1c(=O)[nH]c(=O)c2c1nc(CN1C(=O)c3ccccc3S1(=O)=O)n2CCC	6	-4	-5	9.2	0	3178	13
CCNc1nc(Oc2ccc(C(=O)OC)cc2)nc(N2CCOCC2)n1	0	1	-15	2.8	14	4899	-2

Source: PubChem BioAssay
